Source: PubChem (National Center for Advancing Translational Sciences (NCATS))
gsp antag – antagonizes gsp, the McCune-Albright syndrome mutation. Potency, µM (series often up to 76.9 µM), for inactives: at the top dose activity change, negative = inhibition, usual class: inhibitors. AID 624288. gsp-mutant cells, cAMP HTRF, 30 min; control for the full effect not named in the record. hit rate 0.4% among 340,000; active = falling curve of any shape with a large fitted effect; inconclusive = falling curve, mostly with a smaller effect; inactive = flat or rising curve; cell line not stated here;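 note: intracellular cAMP measured with PDE inhibitor Ro 20-1724 present during compound exposure; potency is the fitted concentration of half-maximal effect; % is set by controls: 0 for no effect and ±100 for the full control effect; nearly all actives have a fitted effect of over 65% in size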
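Cells in G418 medium, seeded 16-24 h, 37C; buffer exchange to DPBS + 1 mM CaCl2, 0.5 mM MgCl2, 0.05% BSA; cpds in DMSO + […] (300 uM stock), 30 min 37C; HTRF cAMP detection.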
ClpP mod – qHTS Assay for Activators of ClpP; ATP-dependent Clp protease proteolytic subunit (Bacillus subtilis (strain 168)), P80244; purified B. subtilis ClpP, FRET peptide cleavage, 20 min; Potency, µM (top dose mostly 57.5 µM), without a hit: at the highest dose activity change, negative = active; hit rate 1.9% among 340,000; AID 651965, 2013; active = well fitted falling curve with a large enough effect; inconclusive = small, poorly fitted or top-dose-only effect; inactive = no such curve, though single readings can be large or run the other way; note: potency is the fitted concentration of half-maximal effect; the source files actives as falling curves though it sought activators and does not explain the sign; nearly all actives have a fitted effect of over 65% in size; many hits overshoot -100%
Target sequence (P80244 whole entry, looked up): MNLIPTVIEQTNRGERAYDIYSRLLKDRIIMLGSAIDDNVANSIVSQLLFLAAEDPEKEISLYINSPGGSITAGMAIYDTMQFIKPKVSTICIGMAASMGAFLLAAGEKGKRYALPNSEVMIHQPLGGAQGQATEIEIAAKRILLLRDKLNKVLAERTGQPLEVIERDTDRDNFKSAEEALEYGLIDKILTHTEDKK
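Purified B. subtilis ClpP, 10 microg/mL final in Tris/HCl pH8 with KCl, BSA, glycerol and Tween-20, cleaved an Abz/nitrotyrosine-quenched decapeptide. Fluorescence (ex 320, em 430) was read at 0 and 20 min at room temperature. Delta was normalized to 5.8 microM ADEP and DMSO/no-enzyme controls.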
CtBP-E1A blk – blocks the CtBP interaction with E1A. AlphaScreen GST-E1A/His-CtBP binding, 1536-well; hits give low values; control for the full effect not named in the record. hit rate 0.49% among 340,000. activity change, % (no concentration beside the values); in the data active means activity change below about -65%; inconclusive means about -30% to -65%; inactive means above about -30%; note: % is set by controls: 0 for no effect and ±100 for the full control effect; compound concentration not given in the record
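Steps: dispense buffer (Tris pH 8.0, NaCl 300 mM, TCEP 1 mM, BSA, Tween 20); add 5X protein mix (GST-E1A, His-CtBP, 125 nM each); pin 23 nL compound; 2 h at 37 °C, dark; add 5X beads (50 ug/mL); 1 h; read.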
gsp agonist – agonists of gsp mutant (McCune-Albright syndrome); gsp mutant cells, cAMP HTRF, 30 min; control for the full effect not named in the record; Potency, µM (doses to about 76.9 µM), for inactives: at the highest dose activation (cAMP increase), hits mostly activators; hit rate 0.13% among 340,000; AID 624287; active = well fitted activation curve with a large enough effect; inconclusive = small, poorly fitted or top-dose-only effect, or another doubt; inactive = no such curve, though single readings can be large or run the other way; cell line not stated here;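 note: phosphodiesterase inhibitor Ro 20-1724 added with compounds to block cAMP breakdown; potency is the fitted concentration of half-maximal effect; nearly all actives have a fitted effect of over 60% in size; about a fifth of the inactives were tested at one dose only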
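Cells stably selected in G418 were plated at 2000/well, grown 16-24 hr, then given compounds in DMSO with the PDE inhibitor […] (300 uM solution added) for 30 min at 37C; cAMP was read by HTRF.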
Menin-MLL FL inh – inhibitors of human menin-MLL interaction, wild-type MLL peptide. Fluorescence polarization, fluorescein-MLL peptide displacement from menin. FP activity change, % at 61.4 µM. AID 1766. 290,000 tested, under 10 active; inconclusive = falling polarisation curve, or a change in total fluorescence; inactive = total fluorescence flat and polarisation flat or rising; no compound was filed as active; the % refers to the polarisation; negative = inhibition;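 note: % of control where 0% means no effect; inhibitors lower the polarisation; unlabelled MLL peptide was the positive control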
Sfp inh – inhibitors of Bacillus subtilis Sfp phosphopantetheinyl transferase; hit rate 3.5% among 310,000; Potency, µM, inactives show max response, negative = inhibition, most hits filed as inhibitors; Q9F4F7; AID 1490; Biochemical Sfp PPTase activity, qHTS; active = well fitted inhibition curve with a large enough effect; inconclusive = small, poorly fitted or top-dose-only effect, or another doubt; inactive = no such curve, though single readings can be large or run the other way;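 note: the enzyme is Sfp with the accession as filed and its product quenches rhodamine fluorescence; potency is the fitted concentration of half-maximal effect; 0% = enzyme reaction without inhibitor and -100% = no enzyme wells; top concentration of the series not given in the record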
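Fluorescence-quenching assay: 15 nM Sfp-PPTase preincubated 15 min at room temperature with compound, then 5 uM rhodamine-CoA and 12.5 uM BHQ-2-labelled YbbR peptide added. Fluorescence (ex 525/em 598 nm) read at start and after 30 min; difference gives rate.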
TRPV1 PAM – potentiators of human vanilloid receptor 1 (TRPV1); TRPV1-expressing cells, Fluo-8 calcium influx, capsaicin EC20 potentiation; host cell line not named in the record; control for the full effect not named in the record; potentiation, % at 8.33 µM; hit rate 0.02% among 320,000; AID 540277; active means potentiation above 80%; inconclusive means 30% to 80%; inactive means below 30%; note: 0% is about no effect
Target sequence (Q8NER1 whole entry, looked up): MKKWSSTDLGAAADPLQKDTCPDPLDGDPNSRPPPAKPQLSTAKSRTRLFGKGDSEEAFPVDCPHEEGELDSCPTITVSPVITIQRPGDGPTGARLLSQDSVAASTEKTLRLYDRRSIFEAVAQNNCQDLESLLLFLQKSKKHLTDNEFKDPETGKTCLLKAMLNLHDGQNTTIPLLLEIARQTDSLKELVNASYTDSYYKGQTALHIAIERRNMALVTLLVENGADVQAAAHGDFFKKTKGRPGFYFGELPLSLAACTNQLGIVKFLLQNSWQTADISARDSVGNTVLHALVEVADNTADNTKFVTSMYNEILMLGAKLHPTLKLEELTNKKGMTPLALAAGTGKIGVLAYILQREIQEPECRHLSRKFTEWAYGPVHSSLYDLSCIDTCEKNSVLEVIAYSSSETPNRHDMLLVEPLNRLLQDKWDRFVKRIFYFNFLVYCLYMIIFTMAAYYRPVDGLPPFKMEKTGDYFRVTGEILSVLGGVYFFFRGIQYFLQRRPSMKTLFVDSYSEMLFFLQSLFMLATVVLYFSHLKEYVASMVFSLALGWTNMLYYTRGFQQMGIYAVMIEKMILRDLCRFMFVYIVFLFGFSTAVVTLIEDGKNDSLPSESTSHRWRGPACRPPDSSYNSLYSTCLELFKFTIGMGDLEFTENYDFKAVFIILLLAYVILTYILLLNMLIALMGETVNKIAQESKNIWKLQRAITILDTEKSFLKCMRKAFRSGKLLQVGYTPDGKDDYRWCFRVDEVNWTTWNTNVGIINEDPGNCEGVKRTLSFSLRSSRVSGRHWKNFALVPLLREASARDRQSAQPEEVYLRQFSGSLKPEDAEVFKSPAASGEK
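TRPV1-expressing cells were cultured overnight at 35.5C and loaded with Fluo-8 calcium dye for 40 to 90 min at room temperature. After a 10 s baseline, compound was added and calcium influx was read kinetically for 3 min (ex 480/em 520 nm).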
Active calls of the source: *; ? = inconclusive; . = not tested or not shown; & = joins results of further samples; [ ] = remark or other dose.

compound	gsp antag	ClpP mod	CtBP-E1A blk	gsp agonist	Menin-MLL FL inh	Sfp inh	TRPV1 PAM
CCCCn1c(N)c(N(CCOC)C(=O)c2ccc(-c3cccc(C(F)(F)F)c3)o2)c(=O)[nH]c1=O	10.9%	.	-20.3	-5.5%[15.4 µM]	.	.	3.8
CC(=O)N1N=C(c2ccncc2)OC12CCCC2	11.2%	10µM*	8.1	-15.9%	0.2	15.6%	5.0
CCC(Oc1ccccc1)C(=O)Nc1cc(Cl)ccc1-n1cncn1 (stereo not given)	-1.6%	-5.0%	6.4	-2.5%[15.4 µM]	.	.	?
Cc1cccc(-c2noc(CNS(=O)(=O)c3ccccc3)n2)c1	-4.4%	1.4%	11.2	-6.2%	0.4	9.0%	8.8
CCCCN1/C(=C/c2ccc3ccccc3[n+]2CC)Sc2ccccc21	-21.7%	.	-7.4	-12.4%	?	-16.4%	20.9
CC1CCN(C(=O)c2ccc3c(Cl)c4c(nc3c2)CCCC4)CC1	1.9%	-0.4%	.	-28.1%	-3.6	-11.5%	6.5
CC(=O)c1cc2c(cc1NC(=O)c1cccc(S(=O)(=O)N3CCN(C)CC3)c1)OCO2	5.7%	-0.7%	-18.6	-8.1%	-1.5	10.4%	22.3
CCC(=O)Nc1nnc(S(=O)(=O)N2c3ccccc3CC2C)s1 (stereo not given)	-7.9%	-2.7%&0.0%	-23.1	-3.2%	-0.7	5.3%	-1.0
COc1cc(OC)c2c(-c3cccc(-c4ccoc4)c3)cc(=O)oc2c1	2.4%	-18.2%	1.2	.	.	.	.
O=C(COC(=O)CCC(=O)c1cccs1)NC1CC1	5.3%	2.1%	7.9	-9.3%[15.4 µM]	1.9	?	2.0
O=C(NC1CC1)C1=C[C@H](c2csc3ccccc23)C[C@H](OCc2ccc(CO)cc2)O1	?	-1.1%	-6.0	.	2.6	-4.9%	-10.3
CCC(=O)Oc1ccc(-c2nc(-c3cccnc3)no2)cc1	-14.8%	-0.1%	-0.3	-0.5%	1.4	?	-12.9

(further entries)
compound	gsp antag	ClpP mod	CtBP-E1A blk	gsp agonist	Menin-MLL FL inh	Sfp inh	TRPV1 PAM
CS(=O)(=O)Cc1ccc(C(=O)NC2CCN(Cc3ccccc3)C2)cc1 (stereo not given)	8.8%	.	3.0	5.6%	3.8	8.3%	-3.3
O=C(COC(=O)CCCNC(=O)c1ccc(Cl)cc1)Nc1ccc(Br)cc1	5.6%	-3.5%	-6.8	?	3.2	10.4%	0.8
CNC(=O)CSc1nccn1Cc1ccc(Cl)cc1	4.7%	-1.0%	2.7	-2.9%[15.4 µM]	1.6	9.9%	0.9
CC12CC3CC(C)(C1)CC(Nc1nc(N4CCOCC4)nc4ccccc14)(C3)C2	2.7%	1.0%	-2.5	5.1%[15.4 µM]	-3.0	6.7%	-8.4
COc1cccc(OC)c1OCCOCCN1CCN(C)CC1	11.6%	.	5.1	-0.4%[15.4 µM]	-2.6	6.6%	-5.6
CCCCNc1nc2ccccc2n1CC(=O)Nc1ccc2c(c1)OCCO2	3.6%	0.6%	1.1	-11.9%	2.1	1.6%	4.2
COC(=O)c1ccccc1-n1c(C)nc(=O)c(-c2ccccc2)c1C	-4.3%	3.7%	.	-37.4%[inhibitor]	3.7	14.7%	-1.3
COCOc1ccc(C=O)cc1OCOC	4.0%	-2.1%	2.9	.	.	.	.
COc1nc(Nc2ccc(-c3nc4ccccc4o3)cc2)nc(N2CCOCC2)n1	-14.6%[15.4 µM]	8.91µM*	0.0	32.0%	.	.	.
Cc1ccc(S(=O)(=O)CCC(=O)Nc2ccccc2Cl)cc1	-8.5%	0.9%	.	-2.3%	5.2	9.6%	-38.4
COc1ccc(N(CC(=O)N2CCN(c3cccc(C)c3C)CC2)S(=O)(=O)c2c(C)noc2C)cc1	-2.5%	0.1%&-0.3%	-10.6	?	.	17.0%	-4.9
O=C(CSc1n[nH]c(-c2ccc(Cl)cc2Cl)n1)Nc1ccccn1	-5.8%	-2.3%	-14.3	-16.1%	5.1	15.3%	0.3

Carrying on:
compound	gsp antag	ClpP mod	CtBP-E1A blk	gsp agonist	Menin-MLL FL inh	Sfp inh	TRPV1 PAM
O=[N+]([O-])c1cc([N+](=O)[O-])c2nonc2c1Nc1ccccc1O	-19.5%	0.3%	-5.8	-48.0%[inhibitor]	-7.5	?	-8.1
COc1ccc2cc3cc(C(=O)NCc4ccccn4)oc3nc2c1	3.8%	-16.7%	-13.6	23.6%	5.5	-8.3%	-0.6
COCCCNC(=O)CNC(=S)N(Cc1ccc(F)cc1)C1CCCCC1	2.4%	-1.0%	0.0	4.4%	7.4	21.2%	-6.8
CC(=O)Nc1ccc(NC(=O)CN(c2cccc(C(C)=O)c2)S(C)(=O)=O)cc1	8.2%	.	6.0	-8.3%[15.4 µM]	-1.1	20.2%	5.6
CCc1nnc(NC(=O)c2ccc(S(=O)(=O)N(CCOC)CCOC)cc2)s1	-2.6%	0.5%	-4.1	?	1.4	4.5%	-2.5
Fc1ccccc1C1c2cccn2CCN1C(=S)Nc1ccc(Br)cc1 (stereo not given)	-6.2%	.	-4.8	0.8%	.	20.1%	-14.2
Cc1ccc(CNC(=O)CS(=O)Cc2nc(-c3ccccc3F)oc2C)cc1 (stereo not given)	-3.1%	-4.3%	5.5	-2.9%	6.4	-0.8%	-12.3
N#CC1=C(N)Oc2n[nH]c(-c3ccccc3)c2C1c1ccsc1 (stereo not given)	8.9%	-20.3%	-2.8	2.8%	0.3	-13.1%	-8.7
O=C(Nc1ccccc1)Nc1ccc2ccccc2n1	9.0%	1.5%	2.4	4.2%	9.3	18.7%	21.0
CCC(=O)N(Cc1cc(=O)[nH]c2ccccc12)c1cccc(C)c1	6.5%	-7.8%	-1.0	-8.7%	1.5	?	0.5
CCCSc1nc2c(cnn2-c2ccc(Cl)cc2)c(=O)[nH]1	6.3%	2.8%	0.1	-24.2%	2.7	-2.4%	.
COc1ccccc1C(=O)NC(=O)COC(=O)C1CC2CCCC(C1)C2=O (stereo not given)	5.1%	-22.7%	9.0	?	.	8.3%	?

Remaining list, next part:
compound	gsp antag	ClpP mod	CtBP-E1A blk	gsp agonist	Menin-MLL FL inh	Sfp inh	TRPV1 PAM
COc1ccc(CC(=O)N(Cc2ccccc2)c2cccc(C)c2)cc1OC	-12.2%	-1.4%	3.3	-54.8%[inhibitor]	.	10.3%	-5.9
COc1ccc(-n2c(SCC(=O)Nc3nccs3)nnc2-c2ccc(Cl)cc2)cc1	7.4%	-1.4%	2.1	42.9%	.	.	.
Clc1ccc(Nc2nc(-c3ccncc3)cs2)cc1	8.2%	3.6%	2.7	?	.	.	.
CCCOc1ccc(/C(O)=C2/C(=O)C(=O)N(CCCN3CCOCC3)C2c2ccncc2)cc1 (stereo not given)	.	.	.	.	?	?	19.5
COc1cccc(NC(=O)Cn2nnc(C(=O)NCc3cccs3)c2N)c1	9.3%	2.0%&-3.0%	2.3	-2.6%	4.2	5.8%	-3.6
Nc1ccc(C(CC(=O)O)n2cccc2)cc1 (stereo not given)	7.8%	.	-9.1	-10.3%[15.4 µM]	3.1	12.6%	14.8
Cc1ccc([N+](=O)[O-])cc1N/C=C1\CCCCC1=O	-17.1%	.	3.5	-2.8%[15.4 µM]	3.5	-12.4%	16.2
Cc1cc(C)c(C)c(S(=O)(=O)NCCCN2CCCC2=O)c1C	-1.0%	1.7%	0.1	?	-2.9	7.1%	3.6
CCn1c(=N)n(CC(=O)C23CC4CC(CC(C4)C2)C3)c2ccccc21	-2.2%	-16.3%	-13.5	1.4%	2.2	-20.3%	-5.2
COc1cc(NC(=O)CSc2nc3[nH]ncc3c(=O)n2-c2ccccc2C)cc(OC)c1OC	0.5%	3.1%	3.1	-13.5%	-0.2	13.2%	6.8
O=C(COc1ccc2ccccc2c1)N/N=C/c1ccccn1	-1.9%	.	-6.2	-0.1%[15.4 µM]	-0.8	?	9.0
Cc1cc(C)nc(NC(=O)c2cc3ccccc3o2)n1	4.4%	-0.1%	17.1	-43.2%[inhibitor]	-0.3	6.8%	-11.4

Record cards, as listed above. Screens in order: gsp antag | ClpP mod | CtBP-E1A blk | gsp agonist | Menin-MLL FL inh | Sfp inh | TRPV1 PAM
`COc1ccccc1C(=O)NC(=O)COC(=O)C1CC2CCCC(C1)C2=O` (stereo not given) is listed with 5.1% | -22.7% | 9.0 | ? | . | 8.3% | ?
`CC12CC3CC(C)(C1)CC(Nc1nc(N4CCOCC4)nc4ccccc14)(C3)C2` is listed with 2.7% | 1.0% | -2.5 | 5.1%[15.4 µM] | -3.0 | 6.7% | -8.4
`COC(=O)c1ccccc1-n1c(C)nc(=O)c(-c2ccccc2)c1C` is listed with -4.3% | 3.7% | . | -37.4%[inhibitor] | 3.7 | 14.7% | -1.3
`CCC(=O)Oc1ccc(-c2nc(-c3cccnc3)no2)cc1` is listed with -14.8% | -0.1% | -0.3 | -0.5% | 1.4 | ? | -12.9
`CCc1nnc(NC(=O)c2ccc(S(=O)(=O)N(CCOC)CCOC)cc2)s1` is listed with -2.6% | 0.5% | -4.1 | ? | 1.4 | 4.5% | -2.5

Next section:
compound	gsp antag	ClpP mod	CtBP-E1A blk	gsp agonist	Menin-MLL FL inh	Sfp inh	TRPV1 PAM
Cc1nc2nc(Cc3ccccc3)[nH]n2c(=O)c1Cl	-10.6%	-0.9%	9.6	5.4%	-1.3	-5.1%	4.0
Nc1ncnc2c1ncn2C1OC(C(=O)NC2CC2)C(O)C1O (stereo not given)	3.6%	0.1%	2.7	.	.	.	-0.4
COc1ccc(CNC(=O)CCn2ccc3cc(S(=O)(=O)N4CCCC4)ccc32)cc1	-16.4%	-1.8%	0.9	6.8%	-3.5	12.5%	-14.6
CC(C)C(C(=O)NCC1CCCO1)N(C(=O)CNS(=O)(=O)c1ccccc1)c1ccc(F)cc1 (stereo not given)	-2.3%	.	5.2	30.6%	1.0	11.2%	10.7
